Source: PubChem
Methyltransferases: Primary Screen for Target Class Profiling of Small Molecule Inhibitors of Methyltransferases. AID 1745853, 2022. calls only at 40 µM. purified enzyme, MTase-Glo SAH luminescence; active compounds read low. 25,000 tested, 3.9% active; active = -50% or lower on at least one of six enzymes; inconclusive = the cases between; inactive = as a rule above -30% on all six;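 note: enzymes were COMT GAMT GNMT HNMT NNMT and PNMT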
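Each enzyme was reacted with SAM and its substrate, with compounds tested once at 40 uM; SAH formed was read by MTase-Glo luminescence.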
Calls only; i = inactive; ? = inconclusive; + = active, no number. % is set by controls: 0 for no effect and ±100 for the full control effect.

SMILES | Methyltransferases
CCOc1ccccc1CN1CCCOCCNC(=O)[C@@H]2CCCC[C@@H]21 | i
COc1ccc(-c2cc3n(n2)CC(C)(C(=O)NCc2ccccc2OC)N(c2ccc4c(c2)OCO4)C3=O)cc1 (stereo unspecified) | i
CCc1ccccc1NS(=O)(=O)c1cc2c(cc1Cl)n(C)c(=O)n2C | i
CC1(C)C=Cc2c(ccc3c2[N+]([O-])=C2C3(O)CC34NC(=O)C5(CCCN5C3=O)CC4C2(C)C)O1 (stereo unspecified) | i
CCNC1(C(N)=O)CN(c2nc(C)nc3c(-c4ccc(Cl)cc4)c(-c4ccccc4Cl)nn23)C1 | ?
Cc1ccc(N2C(=O)c3cc(-c4ccco4)nn3CC2(C)C(=O)NC2CCCCCC2)cc1Cl (stereo unspecified) | i
CCCCS(=N)(=O)CCC(N)C(=O)O (stereo unspecified) | i
CC(C)NC(=O)CSc1nnc2n(C)c(=O)c3ccc(C(=O)NC4CCCCC4)cc3n12 | i
N#CCC(C1CCCC1)n1cc(-c2ncnc3[nH]ccc23)cn1 (stereo unspecified) | ?
COc1ccc(CN2C(=O)c3cc4sccc4n3CC2(C)C(=O)NC2CCCCCC2)cc1 (stereo unspecified) | i
COc1ccc(CNC(=O)Cn2ccc3cc(S(=O)(=O)N4CCC(C)CC4)ccc32)c(OC)c1 | i
CCNC(=O)NC1(CCOC)CCN(S(=O)(=O)c2cc(OC)ccc2OC)CC1 | i
C=C1C(=O)[C@@]23C(CC[C@@H]1[C@H]2O)[C@@]12CO[C@]3(O)[C@@H](O)[C@@H]1C(C)(C)CC[C@@H]2O (stereo partly specified) | i
COc1cccc(Cn2nc3n(C(C)C)c(=O)c4ccc(C(=O)NC(C)C)cc4n3c2=O)c1 | i
O=C(c1cn(C2CNC2)nn1)N1CCOCC1 | i
C=CCn1c(=O)c2ccc(C(=O)NC(C)C)cc2n2c(=O)n(CC(=O)Nc3cc(F)ccc3F)nc12 | i
CC1CCCC(NC(=O)C2(C)Cn3c(cc4sccc43)C(=O)N2Cc2ccc(Cl)cc2)C1C (stereo unspecified) | i
COc1ccccc1CNC(=O)C1(C)Cn2nc(-c3ccccc3)cc2C(=O)N1c1ccc(C)cc1C (stereo unspecified) | i
Cc1cccc(NC(=O)N2CCn3cccc3C2C)c1 (stereo unspecified) | i
CC(C)c1cc(C(=O)N2CCn3nc(C(=O)Nc4ccccc4)cc3C2)n[nH]1 | i
CCN(CC)C(=O)N1CCC(c2noc(COc3ccc(F)cc3)n2)C1 (stereo unspecified) | i
CC(CN1C(=O)c2cc3sccc3n2CC1(C)C(=O)NC1CCCCC1)c1ccccc1 (stereo unspecified) | i
Cn1cc(CNC(=O)C[C@@H]2C[C@H]3O[C@H](CNC4CCCC4)[C@@H](O)[C@H]3O2)cn1 | i
Cc1ccc(CCN2C(=O)c3cc4ccccc4n3CC2(C)C(=O)NCc2ccccc2)cc1 (stereo unspecified) | i
COc1cccc(Cn2nc3n(Cc4ccc(C)cc4)c(=O)c4ccc(C(=O)NC(C)C)cc4n3c2=O)c1 | i
CN(C)c1ccc(-c2nnc([C@H]3CCN(Cc4ccccn4)C3)o2)cc1 | i
CN(C)C[C@@H]1CN(c2ncccn2)C[C@H]1NC(=O)c1ccc(Cl)cc1 | i
CCOCCCNC(=O)C1c2c(n(C)c3ccccc23)SCC(=O)N1c1ccc(C(=O)OCC)cc1 (stereo unspecified) | i
COCCCNC(=O)C1CCCN1Cc1cccc(-c2ccc(C)c(Cl)c2)c1 (stereo unspecified) | i
NC(=O)CCN1CCc2onc(-c3ccccc3F)c2C1 | i

An excerpt from above in order of number of heavy atoms, lowest first:
SMILES | Methyltransferases
O=C(c1cn(C2CNC2)nn1)N1CCOCC1 | i
Cc1cccc(NC(=O)N2CCn3cccc3C2C)c1 (stereo unspecified) | i
NC(=O)CCN1CCc2onc(-c3ccccc3F)c2C1 | i
CN(C)C[C@@H]1CN(c2ncccn2)C[C@H]1NC(=O)c1ccc(Cl)cc1 | i
CN(C)c1ccc(-c2nnc([C@H]3CCN(Cc4ccccn4)C3)o2)cc1 | i
Cn1cc(CNC(=O)C[C@@H]2C[C@H]3O[C@H](CNC4CCCC4)[C@@H](O)[C@H]3O2)cn1 | i
COCCCNC(=O)C1CCCN1Cc1cccc(-c2ccc(C)c(Cl)c2)c1 (stereo unspecified) | i
CC(CN1C(=O)c2cc3sccc3n2CC1(C)C(=O)NC1CCCCC1)c1ccccc1 (stereo unspecified) | i
CC1CCCC(NC(=O)C2(C)Cn3c(cc4sccc43)C(=O)N2Cc2ccc(Cl)cc2)C1C (stereo unspecified) | i
Cc1ccc(CCN2C(=O)c3cc4ccccc4n3CC2(C)C(=O)NCc2ccccc2)cc1 (stereo unspecified) | i
CCOCCCNC(=O)C1c2c(n(C)c3ccccc23)SCC(=O)N1c1ccc(C(=O)OCC)cc1 (stereo unspecified) | i
COc1ccccc1CNC(=O)C1(C)Cn2nc(-c3ccccc3)cc2C(=O)N1c1ccc(C)cc1C (stereo unspecified) | i
COc1cccc(Cn2nc3n(Cc4ccc(C)cc4)c(=O)c4ccc(C(=O)NC(C)C)cc4n3c2=O)c1 | i

(continued)
SMILES | Methyltransferases
COC(=O)C[C@H]1[C@]2(C)C3=C(C)[C@H](c4ccoc4)C[C@H]3O[C@@H]2[C@H](OC(C)=O)C2[C@](C)(C(=O)OC)C=CC(=O)[C@@]21C (stereo partly specified) | i
Cc1ccccc1N1C(=O)c2cc(C(C)(C)C)nn2CC1(C)C(=O)NC1CCCCC1 (stereo unspecified) | i
NC[C@H]1O[C@@H](n2cnc3c(N)ncnc32)[C@H](O)[C@@H]1O | +
CCOCCCNC(=O)c1cc2n(n1)CC(C)(C(=O)NCc1ccc(F)cc1)N(C)C2=O (stereo unspecified) | i
CC(=O)Nc1ccc(NC(=S)NC(=O)c2ccc(C(C)(C)C)cc2)cc1 | ?
CC1(C)CCCC2(C)C(CO)C3CCC2C31 (stereo unspecified) | i
C/C=C(\C)C(=O)OCC1OC(OC2OC(COC(=O)/C(C)=C/C)C(OC3OC(CO)C(OC(=O)/C(C)=C/C)C(OC(=O)/C(C)=C/C)C3O)C(O)C2O)C(O)C(O)C1OC1OC(CO)C(OC(=O)/C(C)=C/C)C(OC(=O)/C(C)=C/C)C1O (stereo unspecified) | i
COc1ccc(C(C(=O)O)N2CCN(Cc3csc(C)n3)CC2)cc1C (stereo unspecified) | i
CC(C)(C)c1cc2n(n1)CC(C)(C(=O)NC1CCCCC1)N(Cc1ccccc1F)C2=O (stereo unspecified) | i
CC(C)(O)c1ccc2c(c1)ncn2-c1cccc(-c2ccccc2C#N)c1 | +
Cc1cccc(-c2n[nH]n3c2nc(=O)c2ccc(C(=O)N4CCN(c5ccccn5)CC4)cc23)c1 | i
CC#CCOC(=O)c1c(C)nc2sc3c(c2c1N)CCC(O)C3 (stereo unspecified) | i
CO[C@H]1C(=O)N(C(C)C)[C@H]1C1CCN(S(=O)(=O)c2ccc3c(c2)CCC3)CC1 | i
Cc1ccc(-c2nnn3c2nc(NC2CCCC2)c2ccccc23)cc1 | i
Cc1ccc(C)c(C(=O)N[C@@H]2CN(c3ccncn3)C[C@H]2CO)c1 | i
CC1(C)CCC[C@@]2(C)C1[C@H](OC(=O)/C=C/C=C/C(=O)O)C=C1COC(=O)[C@@]12O (stereo partly specified) | i
Cc1noc(C)c1S(=O)(=O)N1CCC[C@H]1C(=O)N1CCCCCCNC(=O)CC1 | i
CC(C)(C)c1cc(C[C@H]2CNCC[C@H]2CC(=O)N2CCC(Cc3ccccc3)CC2)no1 | i
Cc1ccc(Cn2c(=O)c3ccccc3n3c(CCC(=O)N4CCN(c5cccc(C)c5C)CC4)nnc23)cc1 | i
CSc1ccc(-c2ccc3c(c2)C(=O)N2CCN(C(=O)CCC(=O)O)C[C@@H]2C(=O)N3)cc1 | i
O=C(c1cccn1C1CC1)N1C[C@H](CO)C[C@H](CN2CCCC2)C1 | i
CCCn1c(=O)c2ccc(C(=O)NC3CCCC3)cc2n2c(=O)n(CC(N)=O)nc12 | i
CC(C)CCNc1ncccc1C(=O)N1CCN(Cc2ccccc2)CC1 | ?
COc1ccc(C(=O)NCc2cccnc2)cc1C(=O)NCc1cccnc1 | i
O=C1NCCCCCN(S(=O)(=O)c2cccs2)[C@H]2CCCC[C@@H]12 | i
COc1ccc2c(c1)c(NC(C)=O)c1n2CC(C)(C(=O)NC2CCCC2)N(Cc2cccs2)C1=O (stereo unspecified) | i
CNC(=O)COC(=O)NCCC1CCN(c2cccc(C)n2)CC1 | i
COc1ccc(CN2C(=O)c3cc4c(OC)ccc(OC)c4n3CC2(C)C(=O)NC2CCCC2)cc1 (stereo unspecified) | i
O=C(NO)c1ccc(CC(=O)N(CCO)c2ccccc2)cc1 | ?
CCS(=O)(=O)N1CCC(Oc2cccc(C(=O)NCc3ccccn3)c2)CC1 | i
O=C(COc1ccccc1)N1CCC(c2n[nH]c(=O)n2Cc2ccc(F)cc2)CC1 | i
CCN1CCN(C(=O)Cn2c(=O)oc3cc(S(=O)(=O)N4CC(C)CC(C)C4)ccc32)CC1 (stereo unspecified) | i
CCCn1c(=O)c2ccc(C(=O)NC(C)C)cc2n2c(SCC(=O)Nc3ccc(C)cc3C)nnc12 | i
CC1CCC(NC(=O)C2(C)Cn3c(cc4occc43)C(=O)N2Cc2ccccc2F)CC1 (stereo unspecified) | i
CCC(C)NC(=O)c1ccc2c(=O)n(C(C)C)c3nn(CC(=O)N(C)c4ccccc4)c(=O)n3c2c1 (stereo unspecified) | i
COc1cc(CNC(=O)c2nc(C(O)c3ccccn3)oc2C)cc(OC)c1 (stereo unspecified) | i
CC(C)NC(=O)c1ccc2c(=O)n(C(C)C)c3nn(CC(=O)Nc4ccc(Cl)cc4)c(=O)n3c2c1 | i
CCOC(=O)NCCCC(=O)NCCc1ccccc1 | ?
N#CSc1cc(SC#N)c(N)nc1N | +
Cc1ccc(C)c(N2CCN(S(=O)(=O)c3ccc4[nH]c(=O)[nH]c4c3)CC2)c1 | i
COCCn1nnnc1C1CC2(CCOCC2)C(=O)N1Cc1ccc(SC)cc1 (stereo unspecified) | i
COc1ccccc1N1C(=O)c2cc3ccccc3n2CC1(C)C(=O)NC1CCCC1 (stereo unspecified) | i
COc1cc(C/C(=C/NC(C)=O)N(CC(=O)Cc2ccccc2)C(C)=O)cc2c1OCO2 | i
COc1cccc(S(=O)(=O)N2CCC(OCCOc3ccccc3)CC2)c1 | i
O=C(COc1ccccc1)N1CCC2(CC1)OCCN(CCc1ccccc1)C2=O | i
CN1C(=O)c2cc(C(=O)NCCc3ccccc3)nn2CC1(C)C(=O)NCc1ccc(F)cc1 (stereo unspecified) | i
CN(c1ncccc1CNC(=O)C1CCOCC1)C1CCCCC1 | i
O=C(c1ccccn1)c1cnn2c(-c3ccncc3)ccnc12 | i
CC(=O)Nc1c2n(c3ccccc13)CC(C)(C(=O)NC1CCCC1)N(Cc1ccc(F)cc1)C2=O (stereo unspecified) | i
Cn1nc(CN2CCOCC2)c2c1CCN(S(=O)(=O)c1cccnc1)C2 | i

Next section.
SMILES | Methyltransferases
C=C1C(=O)O[C@@H]2C[C@@]3(C)CCCC(=C)[C@]3(O)C[C@H]12 | i
CCCn1c(=O)c2ccccc2n2c(SCC(=O)Nc3cc(OC)cc(OC)c3)nnc12 | i
CN(CC1CCOCC1)S(=O)(=O)c1ccc(Cl)cc1 | i
CN[C@@H](C)[C@H]1[C@H](O)C[C@@]2(C)[C@@H]3CC[C@H]4C(C)(C)[C@@H](NC)CC[C@@]45C[C@@]35CC[C@]12C | i
Cc1cccc(C#Cc2cc(F)cc(C#N)c2)n1 | i
COc1cc(CC2(CCC(=O)N3CCC(Oc4cccc(F)c4)CC3)CCC(=O)N2)ccc1F (stereo unspecified) | i
C=CCNC(=O)C(NC(=O)c1cccs1)C1CCN(C(=O)c2ccc(F)cc2)CC1 (stereo unspecified) | i
O=C(NCCc1ccccc1)c1ccc2c(=O)[nH]c3c(C(=O)NCC4CCCO4)sc(=S)n3c2c1 (stereo unspecified) | +
CC(/C=C/c1cccc(Oc2ccc(F)cc2)c1)N(O)C(N)=O (stereo unspecified) | i
O=C(Nc1cccnc1)c1ccc2c(c1)OCCN(c1cccc(OC(F)(F)F)c1)C2 | i
Cc1[nH]nc(C(F)(F)F)c1Cc1sc2c(c1C(=O)N1C[C@](C)(O)CO1)c(=O)n(C)c(=O)n2C(C)C | i
CC(C)OCCCN1C(=O)c2cc3sccc3n2CC1(C)C(=O)NC1CCCCCCC1 (stereo unspecified) | i
Cc1oc(C(=O)O)cc1COc1ccc2c(-c3ccccc3)cc(=O)oc2c1C | ?
O=c1cc(N2CCOCC2)oc2c(Nc3ccccc3)nccc12 | ?
CC(C)(C)NC(=O)N1CCCC(c2nc(CCOCC3CC3)no2)C1 (stereo unspecified) | i
COc1ccc(C#Cc2ccc(C(=O)N3CCC[C@@H](O)C3)c(F)c2)cc1 | ?
CCN1C(=O)c2cc(C(=O)NCc3ccc(OC)cc3)nn2CC1(C)C(=O)NC1CCCC1 (stereo unspecified) | i
O=C(Nc1cc(C(F)(F)F)ccc1N1CCCCC1)c1ccncc1 | i
CC(C)=CCCC1(C)C2CCC1(C)C(O)C2 (stereo unspecified) | i
COc1ccccc1CNc1nc2c(-c3cccc(C)c3)nnn2c2ccccc12 | i
Cc1cc2nc3n(c(=O)c2n1CC(=O)NCCc1ccc(Cl)cc1)CCCC3 | i
O=C(CCCCCCC(=O)Nc1ccccc1)NO | i
CCc1ccc(N2C(=O)c3ccccc3CC2(C)C(=O)NCc2ccccc2)cc1 (stereo unspecified) | i
CCOC(=O)c1cc2n(n1)CC(C)(C(=O)NC1CCC(C)CC1)N(Cc1ccc(CC)cc1)C2=O (stereo unspecified) | i
CC1CCCCC1NC(=O)C1(C)Cn2c(nc3ccccc32)C(=O)N1Cc1ccccc1 (stereo unspecified) | i
Cn1cc2c3c(cccc31)CN(C(=O)c1ccccc1F)CC2 | +
C=CCN(C)C(=O)[C@@H](C)C1CC[C@@]2(C)Cc3sc(CSc4ccccc4)nc3[C@@H](C)[C@@H]2[C@H]1O (stereo partly specified) | i
CCCn1c(=O)c2ccc(C(=O)NC(C)C)cc2n2c(=O)n(CC(=O)NCc3ccc(C)cc3)nc12 | i

An excerpt; rates above refer to the full screens.
